# KCNQ2 block: KCNQ2 channel blockers in CHO-K1 cells – cell-based, FluxOR thallium flux, B-score, primary screen (AID 2156). O88943. actives 1.1% (n = 310,000). 20 min; stronger effect = lower value; only compounds with negative scores are shown here; some inactives read as strong as hits. B-score at 10 µM;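 active = fluorescence ratio B-score at most minus 3 library SDs, with starting brightness B-score within 2 library SDs, cut at about -5.5 in these data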
# Target sequence (O88943 whole entry, looked up): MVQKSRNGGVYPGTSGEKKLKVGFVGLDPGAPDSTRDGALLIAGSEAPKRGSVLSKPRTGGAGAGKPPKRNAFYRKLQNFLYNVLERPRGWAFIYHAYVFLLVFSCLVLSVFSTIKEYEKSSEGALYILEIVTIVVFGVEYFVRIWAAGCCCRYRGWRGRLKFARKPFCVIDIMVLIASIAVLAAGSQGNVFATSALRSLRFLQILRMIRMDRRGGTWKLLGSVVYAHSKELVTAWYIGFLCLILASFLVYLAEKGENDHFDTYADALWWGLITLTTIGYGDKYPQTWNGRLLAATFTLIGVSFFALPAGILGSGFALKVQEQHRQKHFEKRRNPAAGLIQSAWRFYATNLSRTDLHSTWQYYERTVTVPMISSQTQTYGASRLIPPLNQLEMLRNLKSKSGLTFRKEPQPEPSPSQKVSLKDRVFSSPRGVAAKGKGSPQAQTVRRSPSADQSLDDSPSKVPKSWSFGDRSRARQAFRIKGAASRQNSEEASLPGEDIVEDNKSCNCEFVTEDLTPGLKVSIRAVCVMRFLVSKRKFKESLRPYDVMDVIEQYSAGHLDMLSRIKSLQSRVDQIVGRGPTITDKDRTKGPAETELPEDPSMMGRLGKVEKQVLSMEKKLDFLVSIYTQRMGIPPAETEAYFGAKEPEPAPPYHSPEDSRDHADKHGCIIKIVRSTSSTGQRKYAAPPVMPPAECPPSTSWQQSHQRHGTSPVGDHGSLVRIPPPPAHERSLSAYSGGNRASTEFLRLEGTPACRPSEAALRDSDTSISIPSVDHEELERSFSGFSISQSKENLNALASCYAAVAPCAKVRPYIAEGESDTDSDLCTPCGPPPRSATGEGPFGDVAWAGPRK
# KCNQ2 block baseline: second read-out of KCNQ2 block, no call of its own (marks repeat the call); B-score; measured here: initial fluorescence intensity artifact check;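 brightness before thallium and not channel activity; 0 = typical well and far values either way flag optical interference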
# * = called active by the depositor; i = inactive.
KCNQ2 block,KCNQ2 block baseline,molecule
i,-1.3,c1ccc(CCOn2ccnc2)cc1
i,1,CC(C)(C)NC(=O)NC(=O)COC(=O)c1cccc(F)c1
i,0.1,CC1CCCCN1S(=O)(=O)c1ccc(S(=O)(=O)N(Cc2ccccc2)Cc2ccco2)cc1 (configuration not stated)
i,-0.03,COc1cccc(CN(C)CC(=O)NCc2ccc(C)cc2)c1
i,-2.4,O=C(NCCC1=CCCCC1)C(=O)NCC(c1ccco1)N1CCN(c2ccccc2)CC1 (configuration not stated)
i,4.4,CC(=O)N(\C=C/C=C/C=C1\Sc2ccccc2C1=O)c1ccccc1
i,-0.54,O=C(Nc1cccc(C(=O)O)c1)/C(=C/c1ccc([N+](=O)[O-])cc1)NC(=O)c1ccccc1
i,1.5,O=C(CSc1nnnn1C1CCCCC1)N1CCN(C(=O)c2ccco2)CC1
i,0.88,O=C(CSc1nnc(-c2ccco2)n1-c1ccccc1)NCC1CCCO1 (configuration not stated)
i,0.56,CC(CC(=O)Nc1nc2ccccc2[nH]1)c1ccccc1 (configuration not stated)
i,-0.16,O=C(CNC(=S)N(CCCN1CCOCC1)Cc1cccs1)N1CCCCCC1
i,-0.03,COC(=O)Cn1c(=NC(=O)CSCC(=O)Nc2cc(C)on2)sc2ccccc21
i,0.4,CCN(CC)S(=O)(=O)c1ccc(C)c(NC(=O)CSc2nc3ccc(C)cc3[nH]2)c1
i,-0.7,COCCCN1C(=O)C(O)=C(C(C)=O)C1c1ccccn1 (configuration not stated)
i,-1.6,N/C(=N\OC(=O)c1ccco1)c1ccccc1
i,-0.97,CCCOC(=O)C1C2C=CC(C2)C1C(=O)OCC(=O)c1ccccc1 (configuration not stated)
i,-0.62,CCOC(=O)C1CCCN(S(=O)(=O)c2c(C)[nH]c(C)c2C(=O)N2CCCC2)C1 (configuration not stated)
-8*,2.3*,COc1ccc(N(C(=O)c2snc(C(N)=O)c2N)C(C(=O)NC2CCCC2)c2cccs2)c(OC)c1 (configuration not stated)
i,1.8,O=C(CN1C(=O)NC2(CCCCC2)C1=O)N1CCc2ccccc2C1
i,-0.36,Cc1ccc(C(=O)N2CCC(C)CC2)cc1S(=O)(=O)N1CCCCC1
i,0.03,CCOC(=O)c1ccc(NC(=S)NC2CCCC2)cc1
i,-0.31,O=C(Cn1cc(C(F)(F)F)ccc1=O)N1CCN(S(=O)(=O)c2ccccc2)CC1
i,-1.2,CCC(Oc1ccccc1)C(=O)Nc1nnc(S(=O)(=O)N2CCCCC2)s1 (configuration not stated)
i,-0.77,CCN(CC(=O)Nc1ccccc1Br)Cc1nc2ccccc2c(=O)[nH]1

# Quoted at random: 3 entries already listed.
KCNQ2 block,KCNQ2 block baseline,molecule
i,-0.62,CCOC(=O)C1CCCN(S(=O)(=O)c2c(C)[nH]c(C)c2C(=O)N2CCCC2)C1 (configuration not stated)
i,-0.77,CCN(CC(=O)Nc1ccccc1Br)Cc1nc2ccccc2c(=O)[nH]1
i,-1.2,CCC(Oc1ccccc1)C(=O)Nc1nnc(S(=O)(=O)N2CCCCC2)s1 (configuration not stated)

# (cont.)
KCNQ2 block,KCNQ2 block baseline,molecule
i,0.08,CCOc1ccc2c(c1)C(c1ccc(C)cc1)=NNC(c1ccc(OC)cc1)=N2
i,-0.54,COCCNC(=O)C(c1ccncc1)N(C(=O)Cn1nnc2ccccc21)c1ccc(OC)cc1 (configuration not stated)
i,1.2,CCOc1ccc(C(=O)COC(=O)c2c(-c3ccccc3)noc2C)cc1
i,-0.01,CC(=O)NC(CCS(C)(=O)=O)C(=O)Nc1cccc(Cl)c1Cl (configuration not stated)
i,0.02,Fc1ccccc1N1CCN(C2CCN(Cc3c[nH]c4ccccc34)CC2)CC1
i,-0.07,C(=C\c1ccccc1)/CSc1ccccn1
i,-1.2,O=C1C=C(c2ccccc2)CC(/C=C/c2ccccc2)C1 (configuration not stated)
i,-1.6,O=c1c2cc(Cl)ccc2[nH]c(=S)n1Cc1ccccn1
i,0.44,CC(O)c1nc2ccccc2n1C/C=C/c1ccccc1 (configuration not stated)
i,0.23,CSc1ccccc1OCc1cc(C(=O)N(C)Cc2ccc3nsnc3c2)no1
i,-0.04,COC(=O)c1cccc(C23CC4(C2)[C@H](CN(Cc2cccnc2)[C@@H]4c2ccccc2)C3c2ccc(Cl)nc2)c1 (some centres not stated)
i,-0.45,CC(=NCCc1ccccc1)C1=C(O)C(c2ccccc2)OC1=O (configuration not stated)
i,78,O=C1c2cccc3c(O)ccc(c23)C(=O)N1Cc1ccco1
i,-0.1,O=[N+]([O-])c1cccc(-c2ccc(CN3CCCCC3)o2)c1
i,1.4,CCCCC[C@H]1CN(Cc2ccccc2)C(=O)[C@@H]1CC(=O)NCc1ccc(OC)cc1
i,-0.1,COC(=O)C1CCN(C(=O)COC(=O)c2oc3ccc(OC)cc3c2C)CC1
i,1.2,OCCN1CN=C(Nc2nc3ccccc3s2)NC1
i,-0.33,CC1CCCN(S(=O)(=O)c2cccc(-c3cn4cccnc4n3)c2)C1 (configuration not stated)
i,-0.82,COc1ccc(C2C(C(=O)c3ccc(C)o3)=C(O)C(=O)N2Cc2cccnc2)cc1 (configuration not stated)
i,-0.87,Cc1ccc(-c2noc(C3CCCN(C(=O)c4c(F)cccc4F)C3)n2)cc1 (configuration not stated)
i,2.4,CON(C)c1nc(OCCNC(=O)COc2ccc(Cl)cc2C)nc(N(C)C)n1
i,-0.93,COc1ccc(NS(=O)(=O)c2cc(NC(=O)C3CC3)ccc2N2CCCCC2)cc1
i,1.4,COc1ccc(NC(=O)/C=C2\SC(=O)NC2=O)cc1
i,2.2,O=C(Cn1cc2c(n1)CCCC2)N1CCOCC1
i,0.03,COc1nccnc1NS(=O)(=O)c1ccc(N=Cc2c(C)[nH]n(-c3ccc(C)c(C)c3)c2=O)cc1
i,0.02,Cc1ccc(C(=O)N/N=C/C=C/c2ccccc2)cc1
i,0.1,CCCOC(=O)COC(=O)c1ccccc1NC(=O)c1ccccc1
i,-1.2,CCc1ccc(OCC(=O)N2CC(C(N)=O)Oc3ccccc32)cc1 (configuration not stated)
i,-0.96,O=S(=O)(Nc1ncnc2c1oc1ccccc12)c1ccc(Cl)s1
i,1.7,Cn1c(C(=O)OC(C(=O)NC2CCCCC2)c2cccnc2)cc2sccc21 (configuration not stated)
i,1.2,CC(C)c1ccc(-n2nc3ccc(N)cc3n2)cc1
i,0.38,COC(=O)c1ccccc1CSc1nsc(C)c1C#N
i,-0.41,O=C(O)c1cc(S(=O)(=O)NC(CO)C(O)c2ccc([N+](=O)[O-])cc2)ccc1Br (configuration not stated)
i,-4.2,COc1ccc(NC(=O)CN2C(=O)COc3ccc(S(=O)(=O)N4CCOCC4)cc32)c(OC)c1
i,-1.5,CC1CC(C)(C)NC(=S)O1 (configuration not stated)
i,1.1,NC(=O)CC(NC(=O)Cc1ccc(Br)cc1)c1ccc(N2CCN(c3ccccc3)CC2)c([N+](=O)[O-])c1 (configuration not stated)
i,-0.36,CC/C(=N/N=C(/CC)c1ccc(O)cc1)c1ccc(O)cc1
i,0.59,Cc1ccc(-n2nnnc2-c2ccccc2)cc1
i,2.1,COc1ccc(CC(=O)N2CCOCC2)cc1
i,-0.62,Cc1sc2c(c1C)C(=O)/C(=C\Nc1ccccn1)S(=O)(=O)N2C
i,-0.43,CCC(C(=O)NCCc1ccc(OC)c(OC)c1)n1nc(C)n2c(cc3occc32)c1=O (configuration not stated)
i,1,COc1cc(NC(=O)COC(=O)CNC(=O)c2cc(C)cc(C)c2)c(C)cc1[N+](=O)[O-]
i,0.22,COc1ccc(C(=O)NC(=S)N2CCN(c3ccccc3OC)CC2)cc1OC
i,2.2,CCCc1cc(=O)oc2cc(C)cc(OCC(=O)NC3CCN(Cc4ccccc4)CC3)c12
i,1.5,O=C(NNC(=O)c1ccc(Cl)c(S(=O)(=O)Nc2ccc(Cl)cc2)c1)c1ccc(=O)[nH]c1
i,-0.93,Cc1ccccc1NC(=O)C1Cc2ccccc2CN1C(=O)OCc1ccccc1 (configuration not stated)
i,1.9,O=C(NC1CCCCC1)C(c1ccccn1)N(C(=O)c1csnn1)c1ccccc1F (configuration not stated)
i,-1.6,COc1ccc(NC(=O)CSc2nnc(-c3cccs3)n2C)cc1OC

# Whole records, quoted from the list. Screens in order: KCNQ2 block	KCNQ2 block baseline
# Results for `Cc1ccc(-c2noc(C3CCCN(C(=O)c4c(F)cccc4F)C3)n2)cc1` (configuration not stated) : i	-0.87
# Results for `COC(=O)c1cccc(C23CC4(C2)[C@H](CN(Cc2cccnc2)[C@@H]4c2ccccc2)C3c2ccc(Cl)nc2)c1` (some centres not stated) : i	-0.04
# Results for `Cc1ccc(C(=O)N/N=C/C=C/c2ccccc2)cc1` : i	0.02
# Results for `CCC(Oc1ccccc1)C(=O)Nc1nnc(S(=O)(=O)N2CCCCC2)s1` (configuration not stated) : i	-1.2
# Results for `c1ccc(CCOn2ccnc2)cc1` : i	-1.3

# Additional entries
KCNQ2 block,KCNQ2 block baseline,molecule
i,0.3,O=C(CN(C(=O)Cn1nnc(-c2cccs2)n1)c1ccc2c(c1)OCCO2)NCC1CCCO1 (configuration not stated)
i,-0.48,CC(C)(C)c1ccc(S(=O)(=O)C(C)(C)C)cc1
i,1.6,Cn1c(C(=O)Nc2ccc(Cl)cc2)cc2cc(Cl)ccc21
i,1.6,CCN(CC)S(=O)(=O)c1cccc(S(=O)(=O)N2CCCCC2)c1
i,1.1,Cc1ccc(C)c(N(CC(=O)NCc2ccc3c(c2)OCO3)C(=O)CCC(=O)Nc2ccccn2)c1
i,1.6,COC(=O)COc1ccc(NC(=O)Cn2nc(-c3ccccc3)c3ccccc3c2=O)cc1
i,-0.47,CN(C)CCCn1c(=S)[nH]c2ccccc2c1=O
i,-0.17,Cc1ccc(OCC(=O)N2CCc3ccccc3C2)cc1

# Laid out differently: results already given
Compound	KCNQ2 block	KCNQ2 block baseline
O=C(CN(C(=O)Cn1nnc(-c2cccs2)n1)c1ccc2c(c1)OCCO2)NCC1CCCO1 (configuration not stated)	i	0.3
CC(C)(C)c1ccc(S(=O)(=O)C(C)(C)C)cc1	i	-0.48
Cn1c(C(=O)Nc2ccc(Cl)cc2)cc2cc(Cl)ccc21	i	1.6
CCN(CC)S(=O)(=O)c1cccc(S(=O)(=O)N2CCCCC2)c1	i	1.6
Cc1ccc(C)c(N(CC(=O)NCc2ccc3c(c2)OCO3)C(=O)CCC(=O)Nc2ccccn2)c1	i	1.1
COC(=O)COc1ccc(NC(=O)Cn2nc(-c3ccccc3)c3ccccc3c2=O)cc1	i	1.6
CN(C)CCCn1c(=S)[nH]c2ccccc2c1=O	i	-0.47

# (further entries)
KCNQ2 block,KCNQ2 block baseline,molecule
i,0.04,CCOC(=O)N1CCC(NC(=O)c2ccc3c(c2)N=C(CC)c2cc(C)ccc2S3)CC1
i,0.02,CCOc1ccccc1NC(=O)CSc1nc2ccccc2c(=O)n1CC1CCCO1 (configuration not stated)
i,0.78,COCCN(C(=O)COC(=O)c1ccc2[nH]c(C)c(C)c2c1)c1c(N)n(Cc2ccccc2)c(=O)[nH]c1=O
i,-1.1,Cc1ccccc1CC(=O)N1CCCc2ccccc21
i,0.17,COc1cccc2cc(S(=O)(=O)c3ccc(C)cc3)/c(=N/NS(=O)(=O)c3ccc(C)cc3)oc12
i,1.8,O=C(CN(C(=O)CNC(=O)c1ccco1)c1cccc(F)c1)NC1CCCCC1
i,-0.53,CCCCC(=O)Nc1ccc(C(=O)NNC(=O)c2cccs2)cc1
i,1.5,CCN(CC)S(=O)(=O)c1ccc(NS(=O)(=O)c2cccc(C)c2)cc1
i,0.89,COc1cc(=O)n(C)c2ccccc12
i,-0.01,CCc1ccc(-c2cc(C)no2)cc1S(=O)(=O)NC(C)Cc1ccco1 (configuration not stated)
i,-0.02,Cc1ccc(NC(=O)CN(C)CC(=O)NC2CCCc3ccccc32)cc1 (configuration not stated)
i,0.09,CC1CN(CCCCOc2ccc(Cl)c3ccccc23)CC(C)O1 (configuration not stated)
i,0.94,O=C(COc1ccccc1C(=O)O)Nc1ccc(SC(F)F)cc1
i,-0.95,Cc1onc(-c2c(F)cccc2Cl)c1C(=O)NNC(=O)C1CCN(Cc2cccc(F)c2)CC1
i,1.3,O=C(N1CCOCC1)N1CCN(C(c2ccccc2)c2ccccc2)CC1
i,0.6,CCC(C)OC(=O)C1=C(C)NC(=O)CC1c1ccccc1OC (configuration not stated)
i,-1,Cc1nnc(N/N=C/C(C)c2ccccc2)[nH]c1=O (configuration not stated)
i,-1.2,COC(=O)C1=C(C)NC(=O)NC1c1ccc(-c2ccc(Cl)cc2)o1 (configuration not stated)
i,1.2,Cn1c(=O)[nH]c(=O)c2c1nc(N1CCCCCC1)n2CCOc1ccccc1
i,0.85,CC1Sc2ccc(S(=O)(=O)N3CCC(C(=O)Nc4ccc(Cl)cc4)CC3)cc2NC1=O (configuration not stated)
i,-1.1,COc1ccc(C2=Nc3ccccc3OC2)cc1
i,0.83,Cn1c2ccccc2c(=O)c2c(=O)n(Cc3ccco3)c(COc3ccccc3)nc21
i,-0.25,O=C1CCCC(O)=C1N=Nc1c(Cl)cc(Cl)cc1Cl
i,-2.6,N/C(COc1ccc(F)cc1)=N\NC(=O)c1cccnc1Oc1ccccc1
i,1.2,CCCCNS(=O)(=O)c1ccc(NC(=O)c2c(-c3ccccc3Cl)noc2C)cc1
i,-0.34,CCCCNCc1cc(Cl)c(OCCC)c(OCC)c1
i,0.44,Cn1c(SCC(=O)N2CCCc3ccccc32)nnc1-c1c[nH]c2ccccc12
i,-0.07,CCOC(=O)c1c(-c2ccccc2Cl)cn2ccccc12
i,-0.37,CCOC(=O)Cc1csc(NC(=O)c2ccc(F)cc2)n1
i,1.2,CCSCC1COC(c2cccn2Cc2ccc(C)cc2)=N1 (configuration not stated)
i,0.08,CC1(C(=O)NCCc2c[nH]c3ccccc23)C=CC2(CCCCC2)N1C(=O)c1ccccc1 (configuration not stated)
i,1.1,CCOC(=O)c1cc(S(=O)(=O)NCc2ccco2)cn1C
i,-0.01,O=C(Nc1cccc(F)c1)NC1(C(=O)N2CCOCC2)CCCCC1

# Source: PubChem

# Some of the compounds tested. The share of hits here may be higher or lower than overall.
